VDR inh = inhibitors of human vitamin D receptor | P11473 | VDR-SRC2-3 peptide fluorescence polarization, 2 h | Potency, µM, without a hit: max response, negative = inhibition, actives largely listed as inhibitors | 400,000 compounds, 0.93% hits | AID 504847; active = well fitted inhibition curve with a large enough effect; inconclusive = small, poorly fitted or top-dose-only effect, or another doubt; inactive = no such curve, though single readings can be large or run the other way; also: series mostly up to about 120 µM
Target sequence (P11473 whole entry, looked up): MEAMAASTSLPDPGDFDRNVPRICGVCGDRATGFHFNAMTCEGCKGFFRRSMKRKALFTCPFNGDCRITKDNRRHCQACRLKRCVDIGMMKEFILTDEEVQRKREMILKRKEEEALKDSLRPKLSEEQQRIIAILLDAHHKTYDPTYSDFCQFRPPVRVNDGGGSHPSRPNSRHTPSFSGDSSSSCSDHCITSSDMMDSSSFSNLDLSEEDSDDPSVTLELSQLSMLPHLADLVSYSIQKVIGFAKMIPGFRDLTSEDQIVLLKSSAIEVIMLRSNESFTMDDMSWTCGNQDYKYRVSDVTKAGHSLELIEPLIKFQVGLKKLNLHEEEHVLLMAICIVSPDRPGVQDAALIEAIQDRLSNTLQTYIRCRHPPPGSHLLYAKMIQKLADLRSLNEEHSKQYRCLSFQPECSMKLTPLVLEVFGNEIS
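After 23 nl compound addition and a short centrifugation, plates sat for 2 hours at ambient temperature; polarization of fluorescence then indicated loss of VDR binding to peptide SRC2-3.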
Numbers without * were called inactive; ? = inconclusive; & = joins results of further samples; ! = a repeat was not active. % is scaled to controls: 0 for no effect and ±100 for the full control effect; potency is read from the fitted curve at half-maximal effect.

SMILES | VDR inh
CCOC(=O)Nc1nc(-c2ccc(Cl)cc2Cl)cs1 | 4%
O=C(COC(=O)CCCc1c[nH]c2ccccc12)Nc1ccc2c(c1)OCO2 | 14%
CCOc1cc(NC(=O)c2ccco2)c(OCC)cc1NC(=O)Cc1cccc(OC)c1 | -3%
Cc1ccc(C(=O)NCC(c2ccco2)S(=O)(=O)c2ccccc2)cc1C (stereo unspecified) | 25%
CN(CC(=O)Nc1ccc(Cl)cc1F)C1CCS(=O)(=O)C1 (stereo unspecified) | 19%
CCOC(=O)c1c(C)[nH]c(C)c1C(=O)COC(=O)c1ccccc1O | -14%
Cc1cccc2c1NC(=O)C2(O)N1CCCC(C)C1 (stereo unspecified) | 3%
Nc1c2c(nc3ccn(Cc4ccccc4)c(=O)c13)CCC2 | -13%
CC1(C)CC(=O)C2=C(C1)N(c1ccc(F)cc1)C(=O)C2(O)C(F)(F)F (stereo unspecified) | -5%
CCOC(=O)c1cnn(CCOC(=O)c2cccc(F)c2)c1NC(=O)c1cccc(F)c1 | -1%
NCCCC[C@H](N)c1nnc([C@H](CCC(=O)O)NC(=O)C2CCNCC2)o1 | -11%
O=C(c1cc2ccccc2cc1O)N1CCN(c2ccc([N+](=O)[O-])cc2)CC1 | 2%
COCCn1c(=O)c(C)nc2cncnc21 | 1%
COc1cccc(C2C(C#N)=C(N)OC3=C2C(=O)CC(c2ccco2)C3)c1OCc1ccc(F)cc1 (stereo unspecified) | 10%
O=C(c1cccc(F)c1)N1CCC2(CC1)CCN(c1ccccc1)CC2 | -11%
O=C(O)CCn1nnc(-c2ccccc2)n1 | -27%
COc1ccc(CNC(=O)C2CC(=O)N(c3ccc(OCC(=O)N4C(C)CCCC4C)cc3)C2)cc1 (stereo unspecified) | 7%
C/C(CCc1oc2ccc(Br)cc2c1-c1ccc(C)o1)=N/O | -13%
CC(C)N(C)CCOC(=O)c1ccccc1Br | ?
O=C(/C=C/c1ccc(-c2ccccc2[N+](=O)[O-])o1)c1ccco1 | ?
COc1ccc(/C=C/C(=O)CC(=O)/C=C/c2cccc(O)c2OC)cc1O | ?
CCOc1ccc(-n2cc(C(=O)N3CCCCCC3)c3cc(OC)c(OC)cc3c2=O)cc1 | -9%
COc1ccc(NC(=O)CSc2nc3ccsc3c(=O)n2CCC(=O)O)c(OC)c1 | -19%
CCn1nc(C(=O)OCC(=O)N(CC(C)C)c2c(N)n(Cc3ccccc3)c(=O)[nH]c2=O)c2ccccc2c1=O | 0%
COc1ccc(OC)c(S(=O)(=O)NC2CCSc3ccccc32)c1 (stereo unspecified) | 26%
CCN(Cc1nc2ccccc2c(=O)[nH]1)C(=O)CN1C(=O)NC2(CCCCC2C)C1=O (stereo unspecified) | 5%
CCC(C)[C@H](NC(=O)N1CC(=O)Nc2ccccc21)C(=O)N1CCC[C@@H]1C(=O)O (stereo partly specified) | -10%
COc1ccc(CNC(=O)CN2C(=O)NC3(CCCc4sccc43)C2=O)cc1OC (stereo unspecified) | 11%
CC(=O)Nc1ccc(S(=O)(=O)N2CC3(C)CC2CC(C)(C)C3)cc1 (stereo unspecified) | 11%
COc1ccccc1CN(Cc1nc2ccccc2c(=O)[nH]1)S(=O)(=O)c1ccc(C)cc1 | 17%
CCOC(=O)c1c(N)sc2c1CCC(CC)C2 (stereo unspecified) | -9%
CC(C)N1CCC(N2CCN(Cc3nc4ccccc4s3)CC2CCO)CC1 (stereo unspecified) | 6%
CCC(NS(=O)(=O)c1ccc(C)cc1)C(=O)Nc1ccc(NC(C)=O)cc1 (stereo unspecified) | 1%
CCC1=NN2C(=N)/C(=C\c3ccc(OCc4cc(=O)n5nc(CC)sc5n4)c(OC)c3)C(=O)N=C2S1 | -5%
Cc1ccc(C)c(C(=O)COC(=O)c2ccc(C)c(S(=O)(=O)N3CCOCC3)c2)c1 | 15%
COc1ccc(NC(=O)C2CCN(C(=O)c3cccs3)CC2)cc1 | -14%
CCOC(=O)c1c(C)oc2ccc(N(C(=O)c3ccncc3)S(=O)(=O)c3ccc(F)cc3C)cc12 | -13%
Cc1ccc(NC(=O)c2cc(-c3ccccc3)nn2-c2ccccc2)c(Br)c1 | -7%
Cc1[nH]c(=S)[nH]c(=O)c1CCOc1ccccc1 | -18%
CCOC(=O)c1ccc(N=C2S/C(=C\c3cc(C)n(-c4cccnc4)c3C)C(=O)N2C)cc1 | 7%
Cc1ccc(Cn2ccnc2C(=O)Nc2ccccc2)cc1 | -6%
CCCOc1ccc2[nH]c(C(=O)N/N=C/c3cc(OC)c(OC)c(OC)c3)cc2c1 | -8%
O=[N+]([O-])c1ccc(OCc2cnc(Cl)s2)cc1 | -12%
O=c1cc(-c2ccccc2)oc2cc(O)c(O)c(O)c12 | -14%
Cn1c(C(=O)NCc2cccs2)cc2oc3ccccc3c21 | -10%
Cc1nnc(NC(=O)C(C)Sc2nnc(-c3ccco3)n2C(C)C)s1 (stereo unspecified) | 0%
CCC(C)N(C(=O)Cn1nnc(-c2ccc(F)cc2)n1)C1CCS(=O)(=O)C1 (stereo unspecified) | -2%
O=C(NCc1ccc(F)cc1)c1cccnc1C(=O)O | -11%
O=C(Nc1cccnc1)c1cc2nc(C3CC3)cc(C(F)(F)F)n2n1 | -16%
COc1ccc(-c2c(C#N)c(SCC(=O)Nc3ccc(C)c(C)c3)nc(C)c2C(=O)Nc2ccccc2)cc1OC | 13%
CC1(C)CC(=O)C(N=Nc2ccc(S(=O)(=O)N3CCCCCC3)cc2)=C(O)C1 | 12%
Cc1cc2n(n1)CCCN2C(=O)Nc1cccc(C)c1C | 6%
O=c1oc2ccccc2c(Nc2cccc(O)c2)c1[N+](=O)[O-] | -3%
Cc1ccc(C)c(SCC(=O)N(C)C2CCS(=O)(=O)C2)c1 (stereo unspecified) | -14%
CC(/C=N/Nc1nncc(=O)[nH]1)=C\c1ccccc1 | -14%
Cc1cccc(-n2ncc3c(NNC(=O)c4ccco4)ncnc32)c1 | 1%
CCOc1ccc(NC(=O)CN(C)C(=O)c2ccccc2SCc2c(C)noc2C)cc1OCC | ?
CCOC(=O)[C@@H]1[C@H]2COc3ccccc3[C@H]2N2C(=O)N(c3cccc(C)c3)C(=O)[C@]12C | 2%
O=C(Nc1ccc(Cl)cc1)C1C2CCCCC21 (stereo unspecified) | -11%
O=C(c1ccc(S(=O)(=O)N2CCCCCC2)cc1)N1CCN(c2ccccc2F)CC1 | -9%

New compounds follow:
SMILES | VDR inh
O=C(Nc1ccc(F)cc1)c1nc[nH]c1C(=O)Nc1ccc([N+](=O)[O-])cc1 | 5%
COc1cccc(NC(=O)N2CCCC2C(=O)NC23CC4CC(CC(C4)C2)C3)c1 (stereo unspecified) | -10%
CCCN1CCN(CCCNC(=O)c2cc3c(=O)[nH]c4ccc(C)cc4c3s2)CC1 | 6%
NCCC[C@@H](CC(=O)N[C@@H]1CCCC[C@H]1C(=O)N[C@H](CC(=O)N[C@@H](CCC(=O)O)CC(=O)O)Cc1c[nH]c2ccccc12)NC(=O)C[C@H](Cc1c[nH]c2ccccc12)NC(=O)[C@@H]1CNCC[C@H]1N | 0%
O=C(CCCc1ccccc1)Nc1nncs1 | -1%
Nc1nc(N)c2nc(-c3ccccc3)c(N)nc2n1 | 8%&-25%&1%&2%
O=S(=O)(c1ccc(-c2ccon2)s1)N1CCCC1 | -4%
CC(Oc1ccccc1)C(=O)Nc1nnc(C2CCCCC2)s1 (stereo unspecified) | -8%
Cc1cccc(CNc2ncnc3ccc(-c4ccoc4)cc23)c1 | 20µM*!
COc1ccccc1C(=O)C1CCCN(Cc2ccc(Oc3ncccn3)cc2)C1 (stereo unspecified) | ?
COc1cccc(-n2nnc3c(=O)n(CC(=O)NCC4CCCO4)cnc32)c1 (stereo unspecified) | -28%
CC(=O)Nc1ccc(S(=O)(=O)NCCCN2CCN(Cc3ccccc3)CC2)cc1Cl | -4%
CCOC(=O)C(Sc1nnc(-c2ccncc2)o1)C(C)=O (stereo unspecified) | -10%
COc1ccc(NC2CCCN(C(=O)CN3CCOC3=O)C2)cc1OC (stereo unspecified) | 6%
Cc1cccc(NC(=O)CCS(=O)(=O)c2ccc3c(c2)NC(=O)CS3)n1 | ?
Cc1nc(-c2ccccc2)sc1CCNC(=O)C(=O)Nc1ccc2c(c1)OCCO2 | 3%
OCCN(CCO)c1ccc(C(c2ccc(Cl)cc2)c2ccc(N(CCO)CCO)cc2Cl)c(Cl)c1 | -14%
CC(C)(C)c1onc(OCP(=O)(O)O)c1CC(N)C(=O)O (stereo unspecified) | 1%&-9%
Cc1ccc(CN2CCN(C(=O)C3CCCO3)CC2)cc1 (stereo unspecified) | -3%
CC(=O)NC(c1ccco1)c1cc(Cl)c2ccc(Cl)nc2c1O (stereo unspecified) | -30%
CC(=O)C1=C(N2CCCCC2)CCC1=O | -7%
O=C(CN1C(=O)S/C(=C\c2ccccc2F)C1=O)Nc1ccccc1O | -1%
CN(C)/C=N/c1nc2nccc(-c3cccnc3)n2n1 | 4%
CC1=C(C)CC(C(=O)NCc2ccc3c(c2)OCO3)C(C(=O)O)C1 (stereo unspecified) | 8%
CCOc1ccc(S(=O)(=O)N(CC)CC(=O)N2CCCC2)cc1C | -8%
Oc1cccc(/C=N/N2CCN(C3c4ccccc4-c4ccccc43)CC2)c1 | -10%
Nc1ccc(S(=O)(=O)Nc2nc(-c3ccccc3)cc(-c3ccccc3)n2)cc1 | 4%
O=C(CCNS(=O)(=O)c1ccc(Br)s1)NC1CCCC1 | 1%
Cc1ccc(S(=O)(=O)c2nnn3c2nc(NCc2ccc(F)cc2)c2sccc23)cc1C | -4%
COc1ccc(C)cc1NC(=O)CN(c1ccccc1)S(C)(=O)=O | -1%
COc1ccc(-c2nc(CS(=O)CC(=O)N3CCc4ccccc4C3)c(C)o2)cc1 (stereo unspecified) | ?
CCOCCCNC(=O)c1cccc(OC2CCN(S(C)(=O)=O)CC2)c1 | -1%
COc1ccc(-n2c(CCc3ccccc3)n[nH]c2=S)cc1 | -6%
CCC(CO)Nc1ncc([N+](=O)[O-])cc1C#N (stereo unspecified) | -4%
Cc1nnc(N=c2ssnc2Cl)o1 | ?
NC(=S)Nc1ccc(Oc2ccc(NC(N)=S)cc2)cc1 | -17%

Nothing new here: entries from further up.
SMILES | VDR inh
CCOC(=O)C(Sc1nnc(-c2ccncc2)o1)C(C)=O (stereo unspecified) | -10%
COc1ccc(NC2CCCN(C(=O)CN3CCOC3=O)C2)cc1OC (stereo unspecified) | 6%
Cc1cccc(NC(=O)CCS(=O)(=O)c2ccc3c(c2)NC(=O)CS3)n1 | ?
Cc1nc(-c2ccccc2)sc1CCNC(=O)C(=O)Nc1ccc2c(c1)OCCO2 | 3%
OCCN(CCO)c1ccc(C(c2ccc(Cl)cc2)c2ccc(N(CCO)CCO)cc2Cl)c(Cl)c1 | -14%
CC(C)(C)c1onc(OCP(=O)(O)O)c1CC(N)C(=O)O (stereo unspecified) | 1%&-9%
Cc1ccc(CN2CCN(C(=O)C3CCCO3)CC2)cc1 (stereo unspecified) | -3%
CC(=O)NC(c1ccco1)c1cc(Cl)c2ccc(Cl)nc2c1O (stereo unspecified) | -30%
CC(=O)C1=C(N2CCCCC2)CCC1=O | -7%
O=C(CN1C(=O)S/C(=C\c2ccccc2F)C1=O)Nc1ccccc1O | -1%
CN(C)/C=N/c1nc2nccc(-c3cccnc3)n2n1 | 4%
CC1=C(C)CC(C(=O)NCc2ccc3c(c2)OCO3)C(C(=O)O)C1 (stereo unspecified) | 8%
CCOc1ccc(S(=O)(=O)N(CC)CC(=O)N2CCCC2)cc1C | -8%
Oc1cccc(/C=N/N2CCN(C3c4ccccc4-c4ccccc43)CC2)c1 | -10%
Nc1ccc(S(=O)(=O)Nc2nc(-c3ccccc3)cc(-c3ccccc3)n2)cc1 | 4%
O=C(CCNS(=O)(=O)c1ccc(Br)s1)NC1CCCC1 | 1%
Cc1ccc(S(=O)(=O)c2nnn3c2nc(NCc2ccc(F)cc2)c2sccc23)cc1C | -4%
COc1ccc(C)cc1NC(=O)CN(c1ccccc1)S(C)(=O)=O | -1%
COc1ccc(-c2nc(CS(=O)CC(=O)N3CCc4ccccc4C3)c(C)o2)cc1 (stereo unspecified) | ?
CCOCCCNC(=O)c1cccc(OC2CCN(S(C)(=O)=O)CC2)c1 | -1%
COc1ccc(-n2c(CCc3ccccc3)n[nH]c2=S)cc1 | -6%

Later entries.
SMILES | VDR inh
COc1cc(NC(=O)Nc2ccc(C)cc2)cc([N+](=O)[O-])c1 | -8%
N=C1C(=O)OCC1c1ccccc1NC(=O)c1ccccc1 (stereo unspecified) | -13%
O=C(NCCC1=CCCCC1)C1CCN(S(=O)(=O)c2cccs2)CC1 | -2%
COc1ccc(-n2cc(CN(C)CCO)c(-c3cccc(F)c3)n2)cc1 | -20%
COc1ccccc1NS(=O)(=O)c1cccc(C(=O)N/N=C(/C)c2ccc(-n3ccnc3)cc2)c1 | 2%
Cc1ccc(NS(=O)(=O)c2cc(N)ccc2Cl)c(C)c1 | -17%
Cc1ccc(N(C)S(=O)(=O)c2cccc(C(=O)NNC(=O)c3ccncc3)c2)cc1 | 12%
O=C(Nn1cnnc1)c1cc2cc(Br)ccc2oc1=O | 12%
Cc1nc(SCC(=O)NCC2CCCO2)c2oc3ccccc3c2n1 (stereo unspecified) | -2%
O=C/C(=C\Nc1ccc(S(=O)(=O)CCO)cc1)c1nc2cc(Cl)ccc2o1 | 8%
Cc1ccc(NC(=O)N2CCCC2C(=O)Nc2ccc3c(c2)OCO3)cc1 (stereo unspecified) | 6%
O=C(COc1ccccc1[N+](=O)[O-])N/N=C/C=C/c1ccco1 | -6%
COC(=O)N1CC(C)N(C(=O)OC)CC1C (stereo unspecified) | -13%
Cc1cccc(-c2nc(S(=O)(=O)c3ccc(F)cc3)c(NCCCN3CCOCC3)o2)c1 | -15%
CCCCOc1ccc(C(=O)NN2C(=O)NC3(CCCCC3)C2=O)cc1OC | -5%
Fc1ccc(N2CCN(Cc3cnc(Cl)s3)CC2)cc1 | 10%

Screening data as filed in PubChem BioAssay.

Some of the compounds tested; rates above refer to the full screens.
